High-throughput results from PubChem BioAssay.
EPAC1 ag val – Validation qHTS for agonist of cAMP-regulated guanine nucleotide exchange factor 3 (EPAC1) | Rap guanine nucleotide exchange factor 3 (Homo sapiens), O95398 | EPAC1 Rap1b BODIPY-GDP exchange, fluorescence | Potency, µM, for the others: max response, positive = active, actives largely listed as activators | 16,000 compounds, 1% hits; active = well fitted activation curve with a large enough effect; inconclusive = small, poorly fitted or top-dose-only effect; inactive = no such curve, though single readings can be large or run the other way;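 also: nearly all actives have a fitted effect of over 70% in size; series mostly up to about 76 or 150 µM; scaled to a cAMP control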
Target sequence (O95398 whole entry, looked up): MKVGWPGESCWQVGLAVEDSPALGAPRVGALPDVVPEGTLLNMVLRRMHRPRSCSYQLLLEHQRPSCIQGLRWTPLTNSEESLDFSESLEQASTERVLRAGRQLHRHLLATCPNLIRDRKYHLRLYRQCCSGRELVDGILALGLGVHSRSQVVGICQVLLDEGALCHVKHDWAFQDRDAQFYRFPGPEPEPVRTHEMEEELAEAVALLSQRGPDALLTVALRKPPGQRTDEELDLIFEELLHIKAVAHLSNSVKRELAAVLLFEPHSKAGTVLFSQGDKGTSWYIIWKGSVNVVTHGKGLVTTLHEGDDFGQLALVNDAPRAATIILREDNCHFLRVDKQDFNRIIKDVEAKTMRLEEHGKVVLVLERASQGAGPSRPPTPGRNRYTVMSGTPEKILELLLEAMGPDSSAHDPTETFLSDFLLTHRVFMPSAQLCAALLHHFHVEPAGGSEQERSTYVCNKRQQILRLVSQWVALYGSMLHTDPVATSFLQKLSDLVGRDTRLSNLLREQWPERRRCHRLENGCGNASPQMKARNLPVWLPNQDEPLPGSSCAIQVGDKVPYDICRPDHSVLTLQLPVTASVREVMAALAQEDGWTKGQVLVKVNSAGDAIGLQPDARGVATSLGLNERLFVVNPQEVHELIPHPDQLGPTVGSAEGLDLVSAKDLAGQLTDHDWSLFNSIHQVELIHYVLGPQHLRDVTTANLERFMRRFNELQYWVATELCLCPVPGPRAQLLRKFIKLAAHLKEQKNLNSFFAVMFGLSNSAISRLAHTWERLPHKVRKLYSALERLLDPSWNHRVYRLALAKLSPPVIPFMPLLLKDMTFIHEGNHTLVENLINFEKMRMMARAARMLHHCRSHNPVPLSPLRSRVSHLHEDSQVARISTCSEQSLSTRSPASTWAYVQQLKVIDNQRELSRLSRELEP
Active calls of the source: *; ? = inconclusive; & = joins results of further samples; [ ] = another dose, or the depositor's remark. % is scaled to controls: 0 for no effect and ±100 for the full control effect; potency is read from the fitted curve at half-maximal effect. Some of the compounds tested (hit frequency here may not be typical).

structure	EPAC1 ag val
OC1(c2cccnc2)CCN(Cc2ccc3c(c2)CN(Cc2cc(F)cc(F)c2)CCO3)CC1	-4%
Brc1ccc(CN2CC[C@H]3C=CCc4cccc(c43)C2)cc1	25%
Cn1cc(NC(=O)c2cc(NC(=O)c3cc(NC=O)cn3C)cn2C)cc1C(=O)NCCC(=N)N	-10%
CCO[C@H]1[C@H](NC(=O)c2cccnc2)c2ccccc2C12CCN(C(=O)c1ccoc1)CC2	-7%
O=c1c(CCc2ccccc2)nc2cnc(N3CCOCC3)nc2n1Cc1ccc(F)cc1	17%
O=C(CCCCCCCCC#CI)Oc1ccccc1	?
O=C(/C=C/c1ccc(O)cc1)c1ccccc1O	-12%
Cn1c(=O)c(-c2ccccc2)nc2cnc(Oc3ccccc3)nc21	?
CCC1CN(CCNC(=O)c2cccc(C)n2)Cc2cc(OC)ccc2O1 (stereo not drawn)	8%
COC(=O)c1cc(CNC(=O)c2ccc3ncccc3c2)cc(NC(=O)c2ccccc2Cl)c1	-18%
NC(C(=O)O)C(CC(=O)O)c1ccc(Cl)cc1 (stereo not drawn)	-6%
COCC(=O)N1CCC[C@@]2(CCN(C(=O)Nc3ccc(OC)cc3)C2)C1	-28%

A different layout for part of the listing above:
CCO[C@H]1[C@H](NC(=O)c2cccnc2)c2ccccc2C12CCN(C(=O)c1ccoc1)CC2
  EPAC1 ag val = -7%

O=c1c(CCc2ccccc2)nc2cnc(N3CCOCC3)nc2n1Cc1ccc(F)cc1
  EPAC1 ag val = 17%

O=C(CCCCCCCCC#CI)Oc1ccccc1
  EPAC1 ag val = ?

Later entries:
structure	EPAC1 ag val
CCC(=O)OCC(=O)C1(OC(=O)CC)C(C)CC2C3CCC4=CC(=O)C=CC4(C)C3(Cl)C(O)CC21C (stereo not drawn)	7%
CN(C)C(=O)C(CCN1CCC(O)(c2ccc(Cl)cc2)CC1)(c1ccccc1)c1ccccc1	0%&5%&-11%&-17%&-1%
O=C1CCN(CCc2ccccc2)CCN1CCO	?
CCCCCCCCCCCCCCC(C(=O)O)C(O)(CC(=O)OC)C(=O)O (stereo not drawn)	-118%[inhibitor]
COc1ccccc1N1CCN(C[C@@H](C(=O)NC(C)(C)C)c2ccccc2)CC1	5%
CC(C)OC(=O)OCOP(=O)(CO[C@H](C)Cn1cnc2c(N)ncnc21)OCOC(=O)OC(C)C	1%
COCC(=O)N1CCC2(CC1)CN(C(=O)Nc1cccc(C#N)c1)C2	26%
COc1ccc(-c2cc(=O)c3c(O)cc(O)c(-c4cc(-c5cc(=O)c6c(O)cc(O)cc6o5)ccc4OC)c3o2)cc1	20%
COCC1CCCN(Cc2ccc3c(c2)CN(C(=O)c2cn4ccc(C)cc4n2)CCO3)C1 (stereo not drawn)	-3%
COc1ccc(CNc2ccnc(-c3ccc(C(=O)N(C)C)cc3)n2)c(OC)c1	-23%
Cc1cc(NC(=O)Nc2ccc3c(ccn3C)c2)sn1	2%&-12%
COc1ccc2cc(CN(C(=O)c3cc(C)nn3C)C3CC3)c(-c3ccc(Cl)cc3)nc2c1	14%
O=C(c1ccncc1)N1CCC[C@@]2(CCN(C(c3ccccc3)c3ccccc3)C2)C1	-22%
CN(C)CCN1C(=O)c2ccccc2N(C)c2ccccc21	-17%
NC(=S)NS(=O)(=O)c1ccc(N)cc1	-5%
COCCn1c(=O)c(-c2cc(F)cc(F)c2)nc2cnc(Oc3ccc(OC)cc3)nc21	-5%
O=C(O)Cc1ccccc1Oc1ccc(Cl)cc1Cl	26%
Clc1ccc(Nc2nnc(Cc3ccncc3)c3ccccc23)cc1	?
FC(F)(F)c1ccccc1-n1ccnc1	?
CC(=O)c1ccc(F)c(-c2cc(C)cc3c2OC(CNC(=O)C[C@@H]2C[C@@H](C)NC(=S)N2)C3)c1 (stereo partly drawn)	-5%
COc1ccc(Oc2ncc3nc(-c4ccc(OC)cc4)c(=O)n(Cc4cccs4)c3n2)cc1	4%
CN(C)c1ccc(-c2cncnc2NCCN2CCOCC2)cc1	-16%
O=c1c(-c2ccccc2)nc2cncnc2n1Cc1ccccc1Cl	-38%
O=C(O)c1ccncc1	-10%
COc1ccc(Oc2ncc3nc(-c4cn(C)c5ccccc45)c(=O)n(CCC#N)c3n2)cc1	4%
CCN1CCN(C(=O)N[C@@H](C(=O)N[C@@H]2C(=O)N3C(C(=O)O)=C(CSc4nnnn4C)CS[C@H]23)c2ccc(O)cc2)C(=O)C1=O	18%
COC1/C=C/OC2(C)Oc3c(C)c(O)c4c(O)c(c(/C=N/N5CCN(C)CC5)c(O)c4c3C2=O)NC(=O)/C(C)=C/C=C/C(C)C(O)C(C)C(O)C(C)C(OC(C)=O)C1C (stereo not drawn)	6%
CNc1ccccc1C(=O)N1CCc2c([nH]c3ccccc23)C1=O	-38%
CC(C)CN1CCC2(CC1)CCN(C(=O)c1cnccn1)CC2	-66%[inhibitor]
O=C(c1cc(C(F)(F)F)cc(C(F)(F)F)c1)N1CCC2(CCCN(Cc3ccccc3)C2)CC1	-100%[inhibitor]
CCC1(C2CCN(C(=O)c3csc(C(C)=O)c3)CC2)NC(=O)N(CCc2scnc2C)C1=O (stereo not drawn)	-4%
COC(=O)C1CCN(Cc2ccc3c(c2)CN(C(=O)c2cc4cc(F)ccc4[nH]2)CCO3)CC1	7%
Cc1ccc(C(=O)C[n+]2cccc3cccc(O)c32)cc1	16%
CCN(CC)CCOc1ccc(C(O)(Cc2ccc(Cl)cc2)c2ccc(C)cc2)cc1 (stereo not drawn)	-22%
CC1=CC2C(CC1=O)C(C)=CCC2C(C)C (stereo not drawn)	20%
Cc1ccc(O)c(C(CCN(C(C)C)C(C)C)c2ccccc2)c1 (stereo not drawn)	-43%
N=C(CC(O)COc1ccccc1-c1ccccc1)N1CCCCC1 (stereo not drawn)	-5%
O=P(O)(O)OCC(O)CO (stereo not drawn)	-4%
Cc1cc2nc3ccc(=[N+](C)C)cc-3sc2cc1N	-16%
COc1cc(SC)ccc1C(=O)N1CCC(Cc2ccccc2)CC1	17%
CN1CCN(c2ncc3ncc(=O)n(Cc4ccc(F)cc4)c3n2)CC1	12%
CCNc1ncc2nc(-c3cccs3)c(=O)n(CCc3ccccc3)c2n1	-35%[inhibitor]
C[C@@H]1CCC2[C@](C)(CO)C(O)CC[C@@]2(C)[C@@]12CC[C@](CO)(CCO)O2 (stereo partly drawn)	9%
CC(C)CN1CCC2(CC1)CCN(C(=O)c1cc(C(F)(F)F)cc(C(F)(F)F)c1)CC2	-64%[inhibitor]
O=C(Nc1ccccc1)OCC(CN1CCCCC1)OC(=O)Nc1ccccc1 (stereo not drawn)	-16%
CC(=O)OC1C[C@]2(C)C(C(C)=O)CCC2C2CCC3=CC(=O)CC[C@@]3(C)C12 (stereo partly drawn)	21%
CCCCCCCCCCCCC/C=C/[C@@H](O)[C@H](CO)NC(C)=O	-8%
Cc1cc(C)c2nccc(C)c2c1	?
c1cncc(OC2CCN(Cc3ccc4c(c3)CN(Cc3nc5ccccc5s3)CCO4)CC2)c1	-2%
COc1ccc(C(=O)N2CCC[C@@]3(CCN(Cc4ccccc4)C3)C2)cc1	23%
CCC1(C2CCN(Cc3cccc4ccccc34)CC2)NC(=O)N(Cc2ccc3c(c2)OCO3)C1=O (stereo not drawn)	12%
O=C(c1cccc(F)c1)N1CCC[C@@]2(CCN(c3ccccn3)C2)C1	-56%[inhibitor]
Cc1cc(=O)c2c(O)cc(O)c(C)c2o1	6%
[N-]=[N+]=Nc1nc2c(N)ncnc2n1C1OC(CO)C(O)C1O (stereo not drawn)	16%
O=C(c1csnn1)N1CCC[C@@]2(CCN(c3ncccn3)C2)C1	-28%
COCCNc1ccnc(-c2ccccc2C)n1	-1%
O=S(=O)(c1ccccc1)N1CCC2(CCCN(Cc3nccs3)C2)CC1	26%
CCCCC1C(=O)N(c2ccccc2)N(c2ccc(O)cc2)C1=O (stereo not drawn)	?
COc1cc2c(cc1OC)C(c1ccccc1)=NCC2	-15%
COc1cccc(-c2nc(N3CCNCC3)c3ccccc3n2)c1	1%

More results.
structure	EPAC1 ag val
CC(C)c1cccc(O)c(=O)c1	?
O=C(c1cccc(F)c1)N1CCC2(CCCN(c3ccc(-c4ccccc4)cc3)C2)CC1	-1%
CCCCC(=O)O[C@H]1CC[C@H]2[C@@H]3CCc4cc(O)ccc4[C@H]3CC[C@]12C	-110%[inhibitor]
CC(=O)N[C@H](Cc1c[nH]c2ccccc12)C(N)=O	-17%
CN1CCN(c2ncc3nc(-c4ccccc4)c(=O)n(Cc4cccs4)c3n2)CC1	-29%
Cc1ccc2c(C)nc(N3CCCC(C(=O)NC(C)(C)CO)C3)nc2c1 (stereo not drawn)	0%
COc1ccc(-c2nc3cnc(Oc4cccc(Cl)c4)nc3n(CCC#N)c2=O)cc1	-25%
OC[C@H]1O[C@@H](OC[C@H]2O[C@@H](O)[C@H](O)[C@@H](O)[C@@H]2O)[C@H](O)[C@@H](O)[C@@H]1O	-9%
CC(=O)c1c(O)c(C)c(O)c2c1OC1=CC(=O)C(C(C)=O)C(=O)[C@@]12C (stereo partly drawn)	6%
N#Cc1cccc(-c2nc3cnc(N4CCOCC4)nc3n(C3CC3)c2=O)c1	-9%
COc1cccc(CN2CCc3nnc(CCc4ccccc4)n3CC2)c1OC	-5%
CC(=O)[C@H]1CC[C@H]2[C@@H]3CCC4=CC(=O)CC[C@]4(C)[C@H]3CC[C@]12C	2%&-9%&-10%&0%
Cc1cc(C)nc(-c2cccc3c2OC(CNC(=O)c2ccc(Cn4nc(C)cc4C)cc2)C3)n1 (stereo not drawn)	5%
COc1ccc2[nH]cc(CCNc3ccnc(-c4ccccc4C(F)(F)F)n3)c2c1	19%
COCC(=O)Nc1cc(C(=O)N2CCSCC2)cc2nc(-c3ccccc3)n(C)c12	-17%
Cc1noc(C)c1-c1nccc(N2CCOCC2)n1	5%
Cc1cccc(CNc2ncncc2-c2ccccc2Cl)c1	?
O=C(c1ccco1)N1CCC2(CC1)CCN(c1cccc(-c3ccccc3)c1)CC2	-33%[inhibitor]
CNc1nc(-c2ccoc2)nc2ccccc12	-23%
NC(Cc1ccccc1)C(=O)O (stereo not drawn)	-8%
CNC(CC(=O)O)C(=O)O (stereo not drawn)	-12%
Cc1ccccc1-c1ccc2ncnc(NCc3cccnc3)c2c1	?
Cc1ccccc1-c1nc(NC2CC2)c2ccccc2n1	-30%
COCCn1c(=O)c(-c2cc(F)cc(F)c2)nc2cnc(N3CCNCC3)nc21	10%
c1ccc(CNc2ncncc2-c2cccnc2)cc1	-29%
O=C(NCC1Cc2cc(F)cc(-c3cnccn3)c2O1)c1cccc(-c2ccccc2F)c1 (stereo not drawn)	?
O=c1c(-c2ccc(F)c(F)c2)nc2cncnc2n1C1CC1	-37%[inhibitor]
CCS(=O)(=O)N(C)[C@@H]1c2cc(C#N)ccc2OC(C)(C)[C@H]1O	-13%&4%
O=C(O)COc1ccccc1/C=N/NC(=O)c1ccncc1	-11%
COC(=O)c1ccc(-c2cccc3c2OC(CNC(=O)c2ccc4c(c2)OCCO4)C3)nc1 (stereo not drawn)	10%
O=C1C(c2[nH]c3ccc(S(=O)(=O)O)cc3c2O)=Nc2ccc(S(=O)(=O)O)cc21	-49%&24%&27%[inhibitor]
COc1ccccc1-c1cc(=O)c2cccc(OC)c2o1	-1%
COc1cccc(-c2nc3cc(SC)ccc3cc2CN(C(=O)c2csc(C)n2)C2CC2)c1	-2%
NC(=S)N=Nc1ccc(NN=C(N)N)cc1	-17%
CC(C)C(NC(=O)c1ccoc1)c1nnc2n1CCN(C(=O)/C=C/c1ccc(F)cc1)CC2 (stereo not drawn)	-15%
COCC(=O)Nc1cc(C(=O)N2CCCC(C(C)=O)C2)cc2nc(-c3ccccc3)n(C)c12 (stereo not drawn)	14%
CC(C)Cc1nc2cc(NS(=O)(=O)N(C)C)cc(C(=O)N3CCN(c4ccccc4)CC3)c2n1C	9%
Nc1ccn([C@@H]2O[C@H](CO)[C@@H](OP(=O)(O)O)[C@H]2O)c(=O)n1	-18%
CC[C@H]1OC(=O)[C@H](C)C(=O)[C@H](C)[C@@H](O[C@@H]2O[C@H](C)C[C@H](N(C)C)[C@H]2O)[C@](C)(OC)C[C@@H](C)C(=O)[C@H](C)[C@H]2N(CCCCn3cnc(-c4cccnc4)c3)C(=O)O[C@]12C	-105%&12%[inhibitor]
COCCNc1ccnc(-c2ccccc2CN(C)C)n1	-4%
COC(=O)[C@H](CC(C)C)NS(=O)(=O)N[C@@H](CC(C)C)C(=O)OC	-22%
c1ccc(CNc2ccnc(-c3ccc4c(c3)OCO4)n2)cc1	?
N#CCCn1c(=O)c(-c2cccc(C#N)c2)nc2cnc(Oc3ccccc3)nc21	-63%[inhibitor]
N#Cc1cccc(NC(=O)N2CCCC3(CCN(C(=O)c4cnccn4)CC3)C2)c1	-40%[inhibitor]
O=C(/C=C/c1ccccn1)NCC1Cc2cccc(-c3ncccn3)c2O1 (stereo not drawn)	-15%
Cn1ccc(O)c(C#N)c1=O	9%
COc1cccc(C(=O)NCc2nc(-c3cccc(NC(=O)c4ccoc4C)c3)oc2C)c1	16%
C#CCN(C)CCCOc1ccc(Cl)cc1Cl	2%&-23%
